Sfp PPTase inh – blocks B. subtilis Sfp PPTase activity; Q9F4F7; Biochemical Sfp PPTase activity, qHTS; Potency, µM, without a hit: max response, negative = inhibition, most hits filed as inhibitors; actives 3.5% (n = 310,000); active = well fitted inhibition curve with a large enough effect; inconclusive = small, poorly fitted or top-dose-only effect, or another doubt; inactive = no such curve, though single readings can be large or run the other way;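 note: the enzyme is Sfp with the accession as filed and its product quenches rhodamine fluorescence; potency is the fitted concentration of half-maximal effect; 0% = enzyme reaction without inhibitor and -100% = no enzyme wells; top concentration of the series not given in the record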
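Fluorescence-quenching assay: 15 nM Sfp-PPTase preincubated 15 min at room temperature with compound, then 5 uM rhodamine-CoA and 12.5 uM BHQ-2-labelled YbbR peptide added. Fluorescence (ex 525/em 598 nm) read at start and after 30 min; difference gives rate.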
TRPML1 ag – activates the human TRPML1 channel; Q9GZU1; TRPML1-expressing cells, Ca2+ dye fluorescence, FDSS; host cell line not named in the record; reference of the full effect not given here; actives 0.12% (n = 410,000); activation, % (concentration not given with the values); AID 624414; in the data active = activation above about 50%; inconclusive = about 30% to 50%; inactive = below about 30%; note: 0% is about no effect; the text of the record puts the active cut at 80%
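TRPML1-DL cells, Tet-induced overnight (~16 h, 37 degrees C), loaded 45-90 min at room temperature with Ca8 no-wash calcium dye plus quencher. FDSS fluorescence: 10 s baseline, compound pin-transfer, 110 s agonist read, then EC80 54-4 (4uM final) and 110 s antagonist read.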
ClpP mod – qHTS Assay for Activators of ClpP | AID 651965, 2013 | purified B. subtilis ClpP, FRET peptide cleavage, 20 min | Potency, µM (doses to about 57.5 µM), inactives show at the highest dose activity change, negative = active | ATP-dependent Clp protease proteolytic subunit (Bacillus subtilis (strain 168)), P80244 | actives 1.9% (n = 340,000); active = well fitted falling curve with a large enough effect; inconclusive = small, poorly fitted or top-dose-only effect; inactive = no such curve, though single readings can be large or run the other way; note: potency is the fitted concentration of half-maximal effect; the source files actives as falling curves though it sought activators and does not explain the sign; nearly all actives have a fitted effect of over 65% in size; many hits overshoot -100%
Target sequence (P80244 whole entry, looked up): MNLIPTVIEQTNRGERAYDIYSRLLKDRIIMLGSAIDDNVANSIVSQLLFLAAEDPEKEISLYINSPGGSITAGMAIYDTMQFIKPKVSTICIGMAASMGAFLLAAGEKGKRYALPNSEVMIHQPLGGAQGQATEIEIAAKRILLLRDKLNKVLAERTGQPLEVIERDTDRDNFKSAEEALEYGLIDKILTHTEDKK
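ClpP 10 microg/mL final, pH 8 Tris/KCl buffer with BSA, glycerol, Tween-20; compound pinned in; FRET-FV substrate; RT 20 min; Ex320/Em430; ΔFRET vs ADEP 5.8 microM, DMSO, no enzyme.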
PINK1 expr mod – changes PINK1 expression. PINK1 immunofluorescence, high-content cytometry, 24 h. Potency, µM (doses to about 76.6 µM), inactives show at the top dose activation (PINK1 increase), actives largely listed as activators. actives 0.2% (n = 410,000). AID 624263; active = well fitted activation curve with a large enough effect; inconclusive = small, poorly fitted or top-dose-only effect; inactive = flat fitted curve, though single readings scatter; cell line not stated here;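 note: potency is the fitted concentration of half-maximal effect; % of control where 0% means no effect; nearly all actives have a fitted effect of over 65% in size; a mitochondrial uncoupler was the plate control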
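Compound titrations (5 concentrations, 24 h) on a stable cell line; DMSO and CCCP controls. Endpoint: fixed-cell PINK1 immunofluorescence with mitochondrial, cell and nuclear markers, scanned by microplate cytometer.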
Menin-MLL FL inh – menin-MLL binding inhibition, fluorescein peptide; Fluorescence polarization, fluorescein-MLL peptide displacement from menin; FP activity change, % at 61.4 µM; 290,000 tested, under 10 active; AID 1766; inconclusive = falling polarisation curve, or a change in total fluorescence; inactive = total fluorescence flat and polarisation flat or rising; no compound was filed as active; the % refers to the polarisation; negative = inhibition;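 note: % of control where 0% means no effect; inhibitors lower the polarisation; unlabelled MLL peptide was the positive control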
TRPV1 potentiator – human TRPV1 potentiation; Q8NER1; TRPV1-expressing cells, Fluo-8 calcium influx, capsaicin EC20 potentiation; host cell line not named in the record; control for the full effect not named in the record; potentiation, % at 8.33 µM; actives 0.02% (n = 320,000); AID 540277; active means potentiation above 80%; inconclusive means 30% to 80%; inactive means below 30%; note: 0% is about no effect
Target sequence (Q8NER1 whole entry, looked up): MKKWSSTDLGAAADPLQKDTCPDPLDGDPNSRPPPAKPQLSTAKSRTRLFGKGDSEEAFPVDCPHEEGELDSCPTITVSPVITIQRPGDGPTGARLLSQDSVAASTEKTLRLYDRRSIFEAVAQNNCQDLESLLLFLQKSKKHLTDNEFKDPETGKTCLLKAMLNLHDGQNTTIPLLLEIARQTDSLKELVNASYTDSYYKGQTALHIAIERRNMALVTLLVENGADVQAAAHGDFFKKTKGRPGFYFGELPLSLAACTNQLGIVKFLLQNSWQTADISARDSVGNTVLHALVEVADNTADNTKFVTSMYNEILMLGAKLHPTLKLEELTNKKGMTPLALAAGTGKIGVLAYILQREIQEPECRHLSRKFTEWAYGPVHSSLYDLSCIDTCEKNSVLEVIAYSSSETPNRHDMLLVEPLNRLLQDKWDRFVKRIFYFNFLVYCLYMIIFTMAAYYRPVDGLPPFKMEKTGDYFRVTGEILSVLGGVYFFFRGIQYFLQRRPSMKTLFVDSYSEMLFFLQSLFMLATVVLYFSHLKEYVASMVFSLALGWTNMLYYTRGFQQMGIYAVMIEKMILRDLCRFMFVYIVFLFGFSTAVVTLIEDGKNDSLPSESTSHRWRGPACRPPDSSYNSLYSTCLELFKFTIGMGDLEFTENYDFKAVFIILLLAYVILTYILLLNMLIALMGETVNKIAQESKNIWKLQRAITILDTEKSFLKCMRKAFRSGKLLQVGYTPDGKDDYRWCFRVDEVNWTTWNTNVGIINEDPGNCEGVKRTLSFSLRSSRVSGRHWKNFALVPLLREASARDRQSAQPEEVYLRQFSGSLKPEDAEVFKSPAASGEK
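Cells expressing TRPV1 were dye-loaded with Fluo-8 and read kinetically: 10 s baseline, 3 min after compound (agonist portion), then 2 min after EC20 capsaicin (allosteric enhancer portion). Calcium-bound dye fluorescence at 480/520 nm.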
TRPML1 inh – blocks the human TRPML1 channel; activity change, negative = inhibition, % (concentration not given with the values); Q9GZU1; AID 624415; TRPML1-inducible cells, Ca2+ dye fluorescence, FDSS; hits give low values; inhibition of EC80 agonist-evoked calcium signal; actives 0.02% (n = 390,000); in the data active means activity change below about -50%; inconclusive means about -30% to -50%; inactive means above about -30%;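 note: stimulus is agonist 54-4 at its EC80 concentration; % is set by controls: 0 for no effect and ±100 for the full control effect; compound concentration not given in the record; the text of the record puts the active cut at -80%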
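Tet-induced TRPML1-DL cells loaded with Ca8 no-wash calcium dye were read kinetically on FDSS. Compound addition was followed by EC80 agonist 54-4 (4 uM final); inhibition was read over 110 s.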
Numbers without * were called inactive; [ ] = remark or other dose.

N#CC1CC(c2ccccc2)=NN1c1ccccc1[N+](=O)[O-] (configuration not stated) was read as Sfp PPTase inh 2%, TRPML1 ag 2.3, PINK1 expr mod -0.8%, Menin-MLL FL inh 0.2, TRPV1 potentiator -3 and TRPML1 inh 18.
COc1ccc(OC)c2c1sc(=NC(=O)CN1C(=O)CCC1=O)n2C was read as Sfp PPTase inh 16%, Menin-MLL FL inh -2.7 and TRPV1 potentiator -1.
`CCc1cccc(NC(=O)Nc2cn(C)c(=O)c3ccccc23)c1` gave TRPML1 ag 0.2, ClpP mod -11%, PINK1 expr mod 0.9% and TRPML1 inh -9.
`O=C(Nc1ccccc1)OCc1cncs1` gave Sfp PPTase inh -8%, TRPML1 ag 0.4, PINK1 expr mod 1.5%, Menin-MLL FL inh -1.6, TRPV1 potentiator -11 and TRPML1 inh 5.
`COCCCn1cc(CN2CC(N3CCN(CCO)CC3)CS2(=O)=O)nn1` (configuration not stated) gave TRPML1 ag -0.3, ClpP mod 0.1% and PINK1 expr mod -0.8%.
For COc1cccc(N2CCN(C(=O)C3CCCN(S(=O)(=O)c4ccc(Br)s4)C3)CC2)c1 (configuration not stated) the results were TRPML1 ag 4.9, ClpP mod -2.3%, PINK1 expr mod -1.1% and TRPML1 inh 56.
Screening O=C(O)C1C(C(=O)Nc2ccc(Cl)cc2)C2C=CC1C21CC1 (configuration not stated) returned Sfp PPTase inh inconclusive, TRPML1 ag -0.6, ClpP mod -0.5%, PINK1 expr mod -0.2%[38.3 µM], Menin-MLL FL inh 1.2, TRPV1 potentiator -3 and TRPML1 inh -2.
Screening Cc1cc(C)cc(NC(=O)N2CCC(NC(=O)c3ccccc3C)CC2)c1 returned Sfp PPTase inh 6%, TRPML1 ag -0.7, ClpP mod -0.8%, PINK1 expr mod 3.3%, Menin-MLL FL inh 0.5, TRPV1 potentiator -3 and TRPML1 inh 12.
For Cc1c(C(=O)NCc2ccccc2)oc2ccc(S(=O)(=O)N3CCC4(CC3)OCCO4)cc12 the results were Sfp PPTase inh 4%, TRPML1 ag 1.9, ClpP mod -2.0%, PINK1 expr mod -0.6%, Menin-MLL FL inh 0.0, TRPV1 potentiator 18 and TRPML1 inh 11.
N#Cc1ccccc1Cn1c(=O)oc2ccccc21 was read as Sfp PPTase inh 11%, TRPML1 ag 0.6, ClpP mod -5.0%, PINK1 expr mod -1.1%, Menin-MLL FL inh 4.4, TRPV1 potentiator -15 and TRPML1 inh -26.
COc1cc(NS(=O)(=O)c2ccc(NC(=O)c3ccc(Cl)cc3Cl)cc2)ncn1 was read as Sfp PPTase inh 7%, TRPML1 ag 0.1, ClpP mod 1.0%, PINK1 expr mod -0.2%, Menin-MLL FL inh 4.6, TRPV1 potentiator 0 and TRPML1 inh 14.
`O=C(CCSCCC(=O)NCc1ccc(F)cc1)NCc1ccc(F)cc1` gave Sfp PPTase inh 3%, TRPML1 ag 1.6, ClpP mod 0.7%, PINK1 expr mod 0.3%, Menin-MLL FL inh 3.8, TRPV1 potentiator -29 and TRPML1 inh -7.
Screening CCOc1ccc(-c2cc(CCCC(=O)NCCc3cc(OC)c(OC)c(OC)c3)no2)cc1 returned TRPML1 ag 2.3, ClpP mod -0.7%, PINK1 expr mod 0.4% and TRPML1 inh -21.
Screening Cc1ccc(NC(=O)COC(=O)CN2C(=O)NC3(CCCC3)C2=O)cc1S(=O)(=O)N(C)C returned Sfp PPTase inh 7%, TRPML1 ag 3.0, ClpP mod 1.6%, PINK1 expr mod 2.4%, Menin-MLL FL inh -1.0, TRPV1 potentiator -12 and TRPML1 inh 28.
Screening C=CCSC(=S)Nc1c(C)n(C)n(-c2ccccc2)c1=O returned Sfp PPTase inh 14%, TRPML1 ag 1.4, PINK1 expr mod 24%, Menin-MLL FL inh 0.7, TRPV1 potentiator 8 and TRPML1 inh 7.
For O=C(O)[C@@H]1CCCN1S(=O)(=O)c1cccc(S(=O)(=O)N2CCC[C@H]2C(=O)O)c1 the results were Sfp PPTase inh 14%, TRPML1 ag -0.4, ClpP mod 2.2%, PINK1 expr mod 1.4%, Menin-MLL FL inh 4.1, TRPV1 potentiator -12 and TRPML1 inh 3.
For CCCC(NC(=O)Cc1c(C)c2cc3c(C)c(C)oc3c(C)c2oc1=O)C(=O)N[C@@H](Cc1ccccc1)C(=O)O (some centres not stated) the results were Sfp PPTase inh -17%, TRPML1 ag -0.6, ClpP mod -14%, PINK1 expr mod 1.1%, Menin-MLL FL inh -6.5, TRPV1 potentiator 9 and TRPML1 inh 2.
`CCC(C)Cn1cnc2c(Sc3c([N+](=O)[O-])ncn3C)nc(N)nc21` (configuration not stated) gave TRPML1 ag -0.9, PINK1 expr mod 0.1% and TRPML1 inh -6.
For Cc1c(Cl)cnc(NC(=O)COC(=O)CCC(=O)c2cccs2)c1Cl the results were Sfp PPTase inh 8%, TRPML1 ag 2.3, PINK1 expr mod 0.3%, Menin-MLL FL inh 3.9, TRPV1 potentiator 6 and TRPML1 inh -8.
Screening Cc1ccc(N2CCN(/N=C/C=C/c3ccccc3)CC2)cc1 returned Sfp PPTase inh 17%, TRPML1 ag 1.4, ClpP mod -3.9%, PINK1 expr mod inconclusive, Menin-MLL FL inh 3.8, TRPV1 potentiator -5 and TRPML1 inh 2.
`COCCCn1c(SCc2ccccc2F)nc2c(sc3ccccc32)c1=O` gave TRPML1 ag -0.7, ClpP mod -1.5%, PINK1 expr mod 16% and TRPML1 inh -5.
For COc1ccc(CN/C(C)=C(/C#N)C(N)=O)cc1OC the results were Sfp PPTase inh 7%, TRPML1 ag -0.2, ClpP mod -1.7%, PINK1 expr mod -1.9%, Menin-MLL FL inh 1.5, TRPV1 potentiator 8 and TRPML1 inh -11.
For OCC1(Cc2ccccc2)CCN(Cc2cccc(F)c2F)CC1 the results were Sfp PPTase inh 21%, TRPML1 ag 0.3, ClpP mod -1.2%, PINK1 expr mod 0.3%, Menin-MLL FL inh -1.7, TRPV1 potentiator -6 and TRPML1 inh 8.
For Cc1ccc2nc(NCCC(=O)O)nc(-c3ccccc3)c2c1 the results were Sfp PPTase inh 5%, TRPML1 ag 0.2, PINK1 expr mod -0.9%, Menin-MLL FL inh 0.9, TRPV1 potentiator 6 and TRPML1 inh -6.
`CCOC(=O)CNC(=S)N(Cc1ccccc1)Cc1ccccc1F` gave Sfp PPTase inh 11%, TRPML1 ag 0.7, ClpP mod 1.6%, PINK1 expr mod 0.1%, Menin-MLL FL inh 5.0, TRPV1 potentiator -17 and TRPML1 inh 1.
For O=C(Cc1ccsc1)OCC(=O)c1ccccc1 the results were TRPML1 ag 0.0, ClpP mod -0.2%, PINK1 expr mod 0.8% and TRPML1 inh -9.
Screening COc1ccccc1C(=O)Oc1c(Sc2ccccc2)c(C)nn1C(C)(C)C returned TRPML1 ag 1.5, ClpP mod 2.0%, PINK1 expr mod 2.0% and TRPML1 inh -13.
`N/C(=N\OC(=O)C1CCCCC1)c1cccc([N+](=O)[O-])c1` gave Sfp PPTase inh -30%, TRPML1 ag 2.3, ClpP mod -1.1%, PINK1 expr mod 3.8%[38.3 µM], Menin-MLL FL inh 4.1, TRPV1 potentiator -13 and TRPML1 inh 0.
`CCOc1ccccc1C1CC(=O)NC2=C1C(=O)CCC2` (configuration not stated) gave Sfp PPTase inh 3%, TRPML1 ag -0.8, ClpP mod -1.6%, PINK1 expr mod 3.5%, Menin-MLL FL inh -1.1, TRPV1 potentiator 5 and TRPML1 inh 27.
Screening COC(=O)CSc1nnc(CNC(=O)Cc2ccccc2)n1-c1ccccc1OC returned Sfp PPTase inh 10%, TRPML1 ag 0.3, ClpP mod -1.4%, PINK1 expr mod -1.9%[38.3 µM], Menin-MLL FL inh 2.5, TRPV1 potentiator 0 and TRPML1 inh 21.
CC(CNC(=O)CN1C(=O)COc2ccc(S(=O)(=O)N3CCCCCC3)cc21)c1ccccc1 (configuration not stated) was read as TRPML1 ag 1.6, ClpP mod -2.5%, PINK1 expr mod -0.7% and TRPML1 inh 14.
Screening FC(F)(F)c1ccccc1CNCc1ccc2c(c1)OCO2 returned Sfp PPTase inh -19%, ClpP mod 0.6%, PINK1 expr mod 5.0%, Menin-MLL FL inh -6.5 and TRPV1 potentiator 2.
`CC1(C)Cc2c(c(=S)nc(-c3ccccc3)n2CCO)CO1` gave Sfp PPTase inh 3%, TRPML1 ag 1.1, ClpP mod -0.6%, PINK1 expr mod 0.6%, Menin-MLL FL inh 3.7, TRPV1 potentiator 0 and TRPML1 inh 7.
O=S(=O)(NCc1ccco1)c1ccc(S(=O)(=O)N2CCCC2)cc1 was read as Sfp PPTase inh 3.2µM*, TRPML1 ag 0.1, PINK1 expr mod -0.5%, Menin-MLL FL inh 13, TRPV1 potentiator 10 and TRPML1 inh 1.
For COc1ccc2cc(-c3ccn[nH]3)ccc2c1 the results were Sfp PPTase inh -8%, TRPML1 ag 0.8, ClpP mod -14%, PINK1 expr mod -1.4%, Menin-MLL FL inh 1.1, TRPV1 potentiator 6 and TRPML1 inh 29.
For Cc1ccc(NC(=O)C2CCCN(S(=O)(=O)c3c(C)noc3/C=C/N(C)C)C2)c(C)c1 (configuration not stated) the results were Sfp PPTase inh 13%, TRPML1 ag -0.1, ClpP mod -1.0%, PINK1 expr mod 1.4%, TRPV1 potentiator 22 and TRPML1 inh 2.
CC(C)[C@@H](C(=O)N1CCCC1)N1C(=O)N2CCc3c([nH]c4ccccc34)[C@@]2(C)C1=O was read as Sfp PPTase inh 15%, TRPML1 ag 0.1, ClpP mod -7.4%, PINK1 expr mod 3.0%, Menin-MLL FL inh 3.5, TRPV1 potentiator 2 and TRPML1 inh -10.
COc1ccccc1C(=O)NCCC(=O)NCC(c1ccccc1)N(C)C (configuration not stated) was read as Sfp PPTase inh 4%, TRPML1 ag 0.0, ClpP mod -1.0%, PINK1 expr mod -0.6%, TRPV1 potentiator 25 and TRPML1 inh -10.
Screening CCOC(=O)c1c(C)[nH]c(C=C2C(=O)CCCC2=O)c1O returned Sfp PPTase inh -21%, TRPML1 ag -0.5, ClpP mod -1.8%, PINK1 expr mod 3.4%, Menin-MLL FL inh inconclusive, TRPV1 potentiator 8 and TRPML1 inh -5.

Bioassay records as filed in PubChem BioAssay.
